KCNQ2 block: KCNQ2 channel blockers in CHO-K1 cells – cell-based, FluxOR thallium flux, B-score, primary screen (AID 2156); hit rate 1.1% among 310,000; O88943; B-score at 10 µM; 20 min; stronger effect = lower value; only compounds with negative scores are shown here; some inactives read as strong as hits;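 active = fluorescence ratio B-score at most minus 3 library SDs, with starting brightness B-score within 2 library SDs, cut at about -5.5 in these data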
Target sequence (O88943 whole entry, looked up): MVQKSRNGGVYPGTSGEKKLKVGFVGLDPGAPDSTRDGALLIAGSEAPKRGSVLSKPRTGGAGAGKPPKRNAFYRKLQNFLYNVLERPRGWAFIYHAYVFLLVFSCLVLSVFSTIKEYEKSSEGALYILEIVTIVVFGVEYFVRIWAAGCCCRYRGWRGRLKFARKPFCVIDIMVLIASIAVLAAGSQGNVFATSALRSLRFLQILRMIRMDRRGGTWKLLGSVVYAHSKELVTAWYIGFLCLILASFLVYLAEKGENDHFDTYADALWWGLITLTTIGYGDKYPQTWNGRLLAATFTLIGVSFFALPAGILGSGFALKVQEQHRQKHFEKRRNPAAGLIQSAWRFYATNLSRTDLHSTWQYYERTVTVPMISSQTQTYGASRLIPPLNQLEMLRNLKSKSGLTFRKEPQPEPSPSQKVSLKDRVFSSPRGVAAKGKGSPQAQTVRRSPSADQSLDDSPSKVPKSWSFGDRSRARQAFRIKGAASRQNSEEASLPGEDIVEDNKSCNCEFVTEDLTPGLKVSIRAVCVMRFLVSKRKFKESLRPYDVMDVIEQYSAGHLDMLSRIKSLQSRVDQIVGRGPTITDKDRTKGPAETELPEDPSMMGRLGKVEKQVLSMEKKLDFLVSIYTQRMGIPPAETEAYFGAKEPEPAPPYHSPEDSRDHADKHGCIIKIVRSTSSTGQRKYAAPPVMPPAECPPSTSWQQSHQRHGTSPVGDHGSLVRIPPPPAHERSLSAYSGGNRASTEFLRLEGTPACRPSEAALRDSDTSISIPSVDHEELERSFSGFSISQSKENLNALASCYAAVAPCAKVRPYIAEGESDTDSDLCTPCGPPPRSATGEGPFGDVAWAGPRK
KCNQ2 block baseline: second read-out of KCNQ2 block, no call of its own (marks repeat the call); B-score; measured here: initial fluorescence intensity artifact check;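 brightness before thallium and not channel activity; 0 = typical well and far values either way flag optical interference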
The depositor's hits bear a star. A portion of the library; the hit share may differ from the screen's.

c1ccc(-c2ccnc3nc(N4CCN(c5ccccc5)CC4)nn23)cc1 was read as KCNQ2 block inactive and KCNQ2 block baseline 0.4.
Screening Cc1cc(C)nc(N/N=C/C2=C(N3CCOCC3)C(=C/c3ccccc3)/CC2)n1 returned KCNQ2 block inactive and KCNQ2 block baseline -1.5.
`CCCn1c(CNc2ccccc2O)nc2ccccc21` gave KCNQ2 block inactive and KCNQ2 block baseline 1.4.
Screening CC(C)OP(=O)(OC(C)C)C(NC(=O)c1ccccc1)C(N)=O (stereo not given) returned KCNQ2 block inactive and KCNQ2 block baseline -0.19.
Screening Cc1ccc(S(=O)(=O)c2c(C)cc(C)[nH]c2=O)cc1 returned KCNQ2 block inactive and KCNQ2 block baseline 0.06.
For COC(=O)CC(NC(=O)Nc1ccc(C)cc1)c1cccc([N+](=O)[O-])c1 (stereo not given) the results were KCNQ2 block inactive and KCNQ2 block baseline 0.31.
`O=C(Nc1ccc2c(c1)OCCO2)c1cc2sccc2n1Cc1ccccc1` gave KCNQ2 block inactive and KCNQ2 block baseline -0.82.
`CCC1(CC)C(=O)C2=C3C1[C@H](C(=O)OC)C=C(C(=O)OC)C[C@H]3[C@H]1C(=O)N(CC(=O)OC)C(=O)[C@H]1[C@H]2C` (stereo not given in full) gave KCNQ2 block inactive and KCNQ2 block baseline 0.54.
`Cc1cc(C)cc(C(=O)NC(=S)Nc2cccnc2)c1` gave KCNQ2 block inactive and KCNQ2 block baseline 0.85.
For COc1cc(/C=N/N2C(=O)c3ccccc3NC2(C)c2cccc([N+](=O)[O-])c2)cc(Br)c1O (stereo not given) the results were KCNQ2 block inactive and KCNQ2 block baseline -0.74.
O=C(NC1=NN(c2ccccc2)CC1)Nc1ccccc1F was read as KCNQ2 block inactive and KCNQ2 block baseline -0.81.
Screening Cc1c(NC(=O)CSc2ccc(Cl)cc2)c(=O)n(-c2ccccc2)n1C returned KCNQ2 block inactive and KCNQ2 block baseline 0.59.
O=C(CCC1COc2ccccc2O1)NCC1COc2ccccc2O1 (stereo not given) was read as KCNQ2 block inactive and KCNQ2 block baseline -0.14.
Screening CC(C(=O)NCC1CCCCC1)N(C)Cc1cccc(Cl)c1 (stereo not given) returned KCNQ2 block -6.9* and KCNQ2 block baseline 2.8*.
For Nc1c(NCCC2=CCCCC2)c(=O)[nH]c(=O)n1Cc1ccccc1 the results were KCNQ2 block inactive and KCNQ2 block baseline 2.8.

Brought forward from above: 2 entries, followed by the next part.
Screening CC(C(=O)NCC1CCCCC1)N(C)Cc1cccc(Cl)c1 (stereo not given) returned KCNQ2 block -6.9* and KCNQ2 block baseline 2.8*.
For Nc1c(NCCC2=CCCCC2)c(=O)[nH]c(=O)n1Cc1ccccc1 the results were KCNQ2 block inactive and KCNQ2 block baseline 2.8.
`Nc1ccc(N=Nc2ccccc2)c2cccnc12` gave KCNQ2 block inactive and KCNQ2 block baseline 2.
Screening O=C(CN1C(=O)C2C3C=CC(C3)C2C1=O)NCCc1ccccc1 (stereo not given) returned KCNQ2 block inactive and KCNQ2 block baseline 1.4.
Cc1ccc(S(=O)(=O)Nc2ccccc2C(=O)Nc2ccc(S(=O)(=O)Nc3nccc(C)n3)cc2)cc1 was read as KCNQ2 block inactive and KCNQ2 block baseline -0.55.
`COc1ccc(N2CCN(C(=O)CNC(=O)Cc3ccc(Cl)cc3)CC2)cc1` gave KCNQ2 block inactive and KCNQ2 block baseline 1.2.
CCC(C)(C)NC(=O)CC(c1ccc(OC)cc1)n1cccc1 (stereo not given) was read as KCNQ2 block inactive and KCNQ2 block baseline -2.5.
For CCCC/C=C/C(NC(=O)CCc1ccccc1)c1ccccc1 (stereo not given) the results were KCNQ2 block inactive and KCNQ2 block baseline 0.15.
`COc1ccc(NC(=O)CCNC(=O)Cn2cnc3sc4c(c3c2=O)CCCC4)c(OC)c1` gave KCNQ2 block inactive and KCNQ2 block baseline -0.4.
Cc1ccc(S(=O)(=O)N2CCC(C(=O)Nc3ccccc3N3CCCCC3)CC2)cc1 was read as KCNQ2 block inactive and KCNQ2 block baseline 5.4.
`COC(=O)c1ccc(CSc2nc3sc(C(=O)O)c(C)c3c(=O)[nH]2)cc1` gave KCNQ2 block inactive and KCNQ2 block baseline 0.71.
Cc1c(Cl)cccc1N1C(=O)CC(NNC(=O)c2cccnc2)C1=O (stereo not given) was read as KCNQ2 block inactive and KCNQ2 block baseline -1.4.
`Cc1ccc(C(NC(=O)N2CCOCC2)C(Cl)Cl)cc1F` (stereo not given) gave KCNQ2 block inactive and KCNQ2 block baseline -0.01.
Screening O=C(NC(=S)Nc1ccc2[nH]ncc2c1)c1ccccc1 returned KCNQ2 block inactive and KCNQ2 block baseline -0.22.
For O=C(NC(=S)Nc1cccc(NC(=O)c2ccccc2)c1)c1cccc([N+](=O)[O-])c1 the results were KCNQ2 block inactive and KCNQ2 block baseline 1.1.
Screening O=C(NCc1ccccc1Cl)C(=O)NCC1CCCN1S(=O)(=O)c1cccs1 (stereo not given) returned KCNQ2 block inactive and KCNQ2 block baseline 0.03.
`COc1ccc(N2CCN(c3ncnc4c3cnn4-c3ccc(C)cc3C)CC2)cc1` gave KCNQ2 block inactive and KCNQ2 block baseline 2.2.
`ClC1(Cl)CC1CSc1ncn[nH]1` (stereo not given) gave KCNQ2 block inactive and KCNQ2 block baseline 0.68.
For COc1ccc(-c2noc(CCC(=O)N3CCN(c4cc(C)ccc4C)CC3)n2)cc1 the results were KCNQ2 block inactive and KCNQ2 block baseline 0.41.
For CC1(OC(=O)c2cnc3ccccc3n2)C(=O)C=C2C=C(c3ccc(C#N)cc3)OC=C2C1=O (stereo not given) the results were KCNQ2 block inactive and KCNQ2 block baseline 1.6.
`CCN(CC)S(=O)(=O)c1ccc(OC(C)C)c(NC(=O)c2c3c(nc4ccccc24)CCN(Cc2ccccc2)C3)c1` gave KCNQ2 block inactive and KCNQ2 block baseline 1.1.
Screening CC1(C)C(=O)Nc2ccccc2N1C(=O)COC(=O)c1ccc(Cl)c(S(=O)(=O)NCc2ccccc2)c1 returned KCNQ2 block inactive and KCNQ2 block baseline 1.1.
`COc1ccc(N2CCN(C(=O)c3cccc(F)c3)CC2)c([N+](=O)[O-])c1` gave KCNQ2 block inactive and KCNQ2 block baseline 2.
`Cc1cc(C)n(CC(O)CN(c2cccc([N+](=O)[O-])c2)S(=O)(=O)c2ccccc2)n1` (stereo not given) gave KCNQ2 block inactive and KCNQ2 block baseline 0.9.
Screening O=C(Cc1ccc(Cl)cc1)NCCc1ccc(F)cc1 returned KCNQ2 block inactive and KCNQ2 block baseline 2.1.
For O=S(=O)(Nc1cccnc1)c1ccc(Cl)cc1 the results were KCNQ2 block inactive and KCNQ2 block baseline 0.9.
`COc1cccc(-c2cc(C(=O)Nn3cnnc3)c3ccccc3n2)c1` gave KCNQ2 block inactive and KCNQ2 block baseline -0.37.
For Cn1c2ccccc2c2c(C(=O)NCc3ccco3)cn(C3CCCCC3)c(=O)c21 the results were KCNQ2 block -9.8* and KCNQ2 block baseline -0.46*.
CC1(C)SC(=S)N(/N=C/c2cccnc2)C1N(O)C(=O)NC1CCCCC1 (stereo not given) was read as KCNQ2 block inactive and KCNQ2 block baseline 0.05.
Screening COc1ccc(CNC(=O)CCS(=O)(=O)c2cc3c(cc2Cl)NC(=O)CO3)cc1 returned KCNQ2 block inactive and KCNQ2 block baseline -1.3.
Screening Cc1occc1C(=O)NNC(=O)NC12CC3CC(CC(C3)C1)C2 returned KCNQ2 block inactive and KCNQ2 block baseline -3.
For Nc1ccc(NS(=O)(=O)c2ccccc2)cc1 the results were KCNQ2 block inactive and KCNQ2 block baseline -0.02.
`CCc1nc(SCC(=O)Nc2ccccc2C)n[nH]1` gave KCNQ2 block inactive and KCNQ2 block baseline -0.57.
`CC(C)N1CCN(Cc2ccc(OC3CCCC3)cc2)CC1CCO` (stereo not given) gave KCNQ2 block inactive and KCNQ2 block baseline 1.1.
O=C(C1CCCN(Cc2nc(-c3cccs3)no2)C1)N1CCOCC1 (stereo not given) was read as KCNQ2 block inactive and KCNQ2 block baseline -0.12.
Screening O=C(O)c1cc2ccc3ccccc3c2[nH]1 returned KCNQ2 block inactive and KCNQ2 block baseline 1.2.
`CCC(C)c1ccccc1OCCOCCN1CCCC1` (stereo not given) gave KCNQ2 block inactive and KCNQ2 block baseline -0.87.
Screening O=[N+]([O-])c1cccc(CN2CCC(Cc3ccccc3)CC2)c1 returned KCNQ2 block inactive and KCNQ2 block baseline -0.27.
Screening Cc1c(F)cccc1NS(=O)(=O)c1ccc(OCCNS(C)(=O)=O)cc1 returned KCNQ2 block inactive and KCNQ2 block baseline 0.8.
Screening COc1cc(C(=O)NCCC2=CCCCC2)ccc1OC1CCN(C(C)=O)CC1 returned KCNQ2 block inactive and KCNQ2 block baseline 0.79.
Cc1cc(=O)c(C(=O)O)nn1-c1ccc(Cl)cc1 was read as KCNQ2 block inactive and KCNQ2 block baseline 1.4.
`O=C(CC1Oc2ccccc2NC1=O)NCc1ccc(Cl)cc1` (stereo not given) gave KCNQ2 block inactive and KCNQ2 block baseline 0.03.
Screening CCOC(=O)c1cc(S(=O)(=O)N2CC(C)CC(C)C2)cn1C (stereo not given) returned KCNQ2 block inactive and KCNQ2 block baseline -0.45.
Screening O=C(N/N=C/c1cn(-c2ccccc2)nc1-c1cc2ccccc2o1)c1c[nH]c2ccccc12 returned KCNQ2 block inactive and KCNQ2 block baseline 0.53.
Screening Cc1cccc(N2N=C(C(=O)O)CCC2=O)c1 returned KCNQ2 block inactive and KCNQ2 block baseline -0.52.
`Cc1ccc2c(CN(C)Cc3cccc(F)c3)cc(=O)oc2c1C` gave KCNQ2 block inactive and KCNQ2 block baseline 0.69.
CCSc1nnc(NC(=O)C2Cc3ccccc3CN2S(=O)(=O)CC)s1 (stereo not given) was read as KCNQ2 block inactive and KCNQ2 block baseline -0.96.
O=C(COc1ccc(/C=N/NC(=O)c2ccncc2)cc1)Nc1ccccc1 was read as KCNQ2 block inactive and KCNQ2 block baseline -0.96.
`COc1ccccc1CNc1cc(C)ccn1` gave KCNQ2 block inactive and KCNQ2 block baseline 0.35.
Screening O=c1nc2n(c3c4c(sc13)CCC4)CCC2 returned KCNQ2 block inactive and KCNQ2 block baseline 1.8.
`CC1=C(C(=O)Nc2cccc(F)c2)C(c2ccsc2)C2=C(CC(C)(C)CC2=O)N1` (stereo not given) gave KCNQ2 block inactive and KCNQ2 block baseline -0.94.
`Cc1ccc(NC(=O)N2CCCC(c3ccccc3)C2)cc1` (stereo not given) gave KCNQ2 block inactive and KCNQ2 block baseline 0.06.
COc1cc(C(=O)Nc2ccc(C)c(S(=O)(=O)N(C)C)c2)ccc1OCC(=O)N1CCOCC1 was read as KCNQ2 block inactive and KCNQ2 block baseline 0.65.
Cc1ccc(CC(=O)Nc2nc3ccccc3s2)cc1 was read as KCNQ2 block inactive and KCNQ2 block baseline -0.13.
COc1ccc(CN2C(=O)c3cccnc3C2=O)cc1S(=O)(=O)NCc1ccc(C)cc1 was read as KCNQ2 block inactive and KCNQ2 block baseline -0.57.
Cn1ccnc1SCC(=O)N(C1CCCCC1)C1CCCCC1 was read as KCNQ2 block inactive and KCNQ2 block baseline 2.5.
CCCc1cc(NC(=O)CCl)n(-c2ccccc2)n1 was read as KCNQ2 block inactive and KCNQ2 block baseline -0.06.
`CCS(=O)(=O)N1CCC(C(=O)Oc2ccccc2Br)CC1` gave KCNQ2 block inactive and KCNQ2 block baseline -0.65.
Screening O=C(Nc1ccc(F)cc1)C(=O)c1cn(CC(=O)N2CCOCC2)c2ccccc12 returned KCNQ2 block inactive and KCNQ2 block baseline 0.01.
Cc1ccc(CC(CC(=O)O)C(=O)NCc2ccccc2)cc1 (stereo not given) was read as KCNQ2 block inactive and KCNQ2 block baseline -0.01.
CC(C)C(NS(=O)(=O)c1ccc2c(c1)C(C)(C)C(=O)N2C)C(=O)NCc1ccc(F)cc1 (stereo not given) was read as KCNQ2 block inactive and KCNQ2 block baseline -0.06.
Screening COC(=O)[C@@H](NC(=O)Nc1ccccc1F)C(C)C returned KCNQ2 block inactive and KCNQ2 block baseline 0.3.
CON1C(=O)C(=O)N(OC)C2CCCCCC21 (stereo not given) was read as KCNQ2 block inactive and KCNQ2 block baseline -1.5.
O=C(/C=C/Nc1ccccc1F)c1cccs1 was read as KCNQ2 block inactive and KCNQ2 block baseline 1.1.
Screening CCOc1cc(C)c(Cl)cc1S(=O)(=O)n1nnc2ccccc21 returned KCNQ2 block inactive and KCNQ2 block baseline 2.6.

Among those listed so far, these contain an NH in an aromatic ring:
Screening Cc1ccc(S(=O)(=O)c2c(C)cc(C)[nH]c2=O)cc1 returned KCNQ2 block inactive and KCNQ2 block baseline 0.06.
For Nc1c(NCCC2=CCCCC2)c(=O)[nH]c(=O)n1Cc1ccccc1 the results were KCNQ2 block inactive and KCNQ2 block baseline 2.8.
`COC(=O)c1ccc(CSc2nc3sc(C(=O)O)c(C)c3c(=O)[nH]2)cc1` gave KCNQ2 block inactive and KCNQ2 block baseline 0.71.
Screening O=C(NC(=S)Nc1ccc2[nH]ncc2c1)c1ccccc1 returned KCNQ2 block inactive and KCNQ2 block baseline -0.22.
`ClC1(Cl)CC1CSc1ncn[nH]1` (stereo not given) gave KCNQ2 block inactive and KCNQ2 block baseline 0.68.
`CCc1nc(SCC(=O)Nc2ccccc2C)n[nH]1` gave KCNQ2 block inactive and KCNQ2 block baseline -0.57.
Screening O=C(O)c1cc2ccc3ccccc3c2[nH]1 returned KCNQ2 block inactive and KCNQ2 block baseline 1.2.
Screening O=C(N/N=C/c1cn(-c2ccccc2)nc1-c1cc2ccccc2o1)c1c[nH]c2ccccc12 returned KCNQ2 block inactive and KCNQ2 block baseline 0.53.

Source: PubChem
